High-throughput results (PubChem BioAssay)
YopH PTP inh – YopH (Yersinia) phosphatase inhibition; fluorescence Ex485/Em525; inhibition, %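 (about 10 µM by stock and volumes)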; hit rate 0.16% among 140,000;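 active means inhibition of 50% or more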;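 further: controls were vehicle for no effect and minimum signal wells for full effect; inactives centre near -20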
RecA intein inh – inhibitors of M. tuberculosis RecA intein splicing | hit rate 0.75% among 290,000 | P9WHJ3 | AID 2221 | cell-free RecA intein splicing, fluorescence | inhibition, %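 (about 9 µM by stock and volumes)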; in the data active means inhibition above about 30%; inconclusive means no clear call, values can overlap the other calls;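 further: 0% = vehicle wells and 100% = reference inhibitor control wells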
Target sequence (P9WHJ3 whole entry, looked up): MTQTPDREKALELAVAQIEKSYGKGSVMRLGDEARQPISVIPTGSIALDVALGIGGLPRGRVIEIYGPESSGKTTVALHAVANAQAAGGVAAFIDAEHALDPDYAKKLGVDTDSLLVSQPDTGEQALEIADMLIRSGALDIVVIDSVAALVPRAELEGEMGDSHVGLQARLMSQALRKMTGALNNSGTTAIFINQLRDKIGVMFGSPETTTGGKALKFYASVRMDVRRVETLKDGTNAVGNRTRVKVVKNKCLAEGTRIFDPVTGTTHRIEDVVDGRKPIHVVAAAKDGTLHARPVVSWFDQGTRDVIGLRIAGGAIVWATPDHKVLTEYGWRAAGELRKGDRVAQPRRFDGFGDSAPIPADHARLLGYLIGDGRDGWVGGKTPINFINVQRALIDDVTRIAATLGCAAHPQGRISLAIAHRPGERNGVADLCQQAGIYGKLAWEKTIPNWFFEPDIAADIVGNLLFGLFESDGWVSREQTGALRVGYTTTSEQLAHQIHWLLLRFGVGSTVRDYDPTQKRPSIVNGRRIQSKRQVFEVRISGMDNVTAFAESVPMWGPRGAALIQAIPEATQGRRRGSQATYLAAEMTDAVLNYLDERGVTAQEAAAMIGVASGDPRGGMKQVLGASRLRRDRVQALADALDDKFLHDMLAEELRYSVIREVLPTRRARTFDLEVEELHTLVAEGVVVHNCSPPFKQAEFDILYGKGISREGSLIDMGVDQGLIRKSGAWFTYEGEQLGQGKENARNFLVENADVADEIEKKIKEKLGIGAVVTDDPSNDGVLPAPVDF
Mtb betalactam – beta-lactam sensitization of Mtb H37Rv. M. tuberculosis H37Rv growth with meropenem, percent inhibition; hits of this screen are not shown here. inhibition, % at 25 µM. hit rate 0.27% among 330,000. AID 434955;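 active means about 74% or more and at least 40 points above the plate without the antibiotic, then above 30% in a dose series; inconclusive means first-round hits that could not be retested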;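 further: growth measured after seven days incubation then overnight dye step; 0% = bacteria only wells and 100% = bacteria with antibiotic; twin plates without the antibiotic show which effects depend on it; some results filed as inactive read as strong as hits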
Arbovirus anti – blocks arbovirus infection | inhibition, % at 10 µM | hit rate 0.37% among 200,000 | arbovirus infection cell-based antiviral screen;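 active means inhibition from about 30%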;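 further: bluetongue infection of BSR cells; cell survival read as ATP light after 72 h; 0% = infected wells without compound and 100% = uninfected wells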
Mtb growth – M. tuberculosis H37Rv growth inhibitors, H37Rv strain (AID 1626). M. tuberculosis H37Rv growth inhibition; higher % means a stronger effect. hit rate 0.95% among 220,000. inhibition, % at 10 µM; hits with a dose series show IC50 in µM;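 active means confirmed in a dose series; inconclusive means inhibition above 80% but not taken into the dose series; inactive means below 80% or under 30% at every dose of the series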;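 further: bacteria incubated seven days before Alamar blue readout; 0% = bacteria only wells and 100% = bacteria with antibiotic wells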
Arbovirus anti repeat – second read-out of Arbovirus anti, no call of its own (marks repeat the call); inhibition, %; measured here: 10K subset replicate screen; many hits read low in the repeat;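 first of two repeat runs on a subset; 0% = infected and 100% = uninfected wells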
Starred values were filed as active, the others as inactive; ? = inconclusive; nt = no result given.

Sample of the layout (5 entries):
SMILES	YopH PTP inh	RecA intein inh	Mtb betalactam	Arbovirus anti	Mtb growth	others
COc1cc(/C=N\NC(=O)c2ccc(-c3ccccc3)cc2)cc(OC)c1O	nt	-0.2	5	nt	nt
COc1cccc(CNC(=O)CN(c2cc(C)cc(C)c2)S(=O)(=O)c2c(C)noc2C)c1	-32	0.6	-1	3	-6%	Arbovirus anti repeat=3
Cc1ncc([N+](=O)[O-])n1CC(O)CCl (stereo unspecified)	-30	0.2	-10	-5	-5%
Cc1ccccc1C(=O)Nc1scc(-c2ccc(Br)cc2)c1C(=O)O	nt	0.0	6	nt	nt
CCc1cccc(C)c1NC(=S)N(CCN(C)C)Cc1cccs1	nt	-4.5	-8	8	-7%

This part in full, from the start:
SMILES	YopH PTP inh	RecA intein inh	Mtb betalactam	Arbovirus anti	Mtb growth	others
COc1cc(/C=N\NC(=O)c2ccc(-c3ccccc3)cc2)cc(OC)c1O	nt	-0.2	5	nt	nt
COc1cccc(CNC(=O)CN(c2cc(C)cc(C)c2)S(=O)(=O)c2c(C)noc2C)c1	-32	0.6	-1	3	-6%	Arbovirus anti repeat=3
Cc1ncc([N+](=O)[O-])n1CC(O)CCl (stereo unspecified)	-30	0.2	-10	-5	-5%
Cc1ccccc1C(=O)Nc1scc(-c2ccc(Br)cc2)c1C(=O)O	nt	0.0	6	nt	nt
CCc1cccc(C)c1NC(=S)N(CCN(C)C)Cc1cccs1	nt	-4.5	-8	8	-7%
Cc1coc2cc3oc(=O)c(CC(=O)N4C[C@H]5C[C@@H](C4)c4cccc(=O)n4C5)c(C)c3cc12	nt	-1.5	-1	nt	nt
CC(=O)c1ccc(NC(=O)C2CCCO2)cc1 (stereo unspecified)	nt	-1.6	6	nt	nt
COc1ccc(CC(=O)NCCCCc2ccccc2)cc1OC	nt	1.8	-3	nt	nt
Cc1cc(OCn2ccc(C(=O)O)n2)ccc1Cl	-21	-1.6	-6	19	-4%
Cc1ccc(NC(=S)NC2CC3CCCC(C2)N3Cc2ccco2)cc1 (stereo unspecified)	nt	-0.2	2	21	2%
O=C(Cc1cccc2ccccc12)NN1C(=O)C2C(C1=O)C1C=CC2C12CC2 (stereo unspecified)	-13	-4.1	-3	3	0%
CCc1cc(OCCN(C)C)ccc1Cl	nt	0.4	-5	2	1%
Cc1cccc2cc(CN(Cc3ccco3)C(=O)c3ccncc3)c(=O)[nH]c12	32	1.9	-16	0	-3%
COc1ccccc1C1=Nc2cccc3cccc(c23)N1	-16	1.6	6	-7	?
Cc1ccc(C)c(SCC(=O)NCC(c2ccco2)N2CCCCC2)c1 (stereo unspecified)	nt	-5.2	-11	nt	nt
O=C(O)c1cccc(NC(=O)c2ccc3c(c2)C(=O)N(C2CCCCC2)C3=O)c1	nt	-5.1	0	nt	nt
CN1CCCN(C(=O)COc2ccccc2)CC1	nt	-3.4	-1	nt	nt
CC1=NNC(=O)C(CC(=O)Nc2ccc(Cl)c(Cl)c2)C1 (stereo unspecified)	-8	0.2	3	2	nt
O=C(Nc1ccc(N2CCOCC2)cc1)c1ccncc1	-10	2.4	-8	3	-10%
CCOC(=O)CC(C)(C)/C(C)=N/Nc1ccc([N+](=O)[O-])cc1[N+](=O)[O-]	-21	nt	-5	13	7%
CCN(CC)CCNC(=S)Nc1ccc(Cl)cc1	-30	-1.0	-2	9	3%
Cc1cc(C)cc(NC(=O)C(OC(=O)Cn2cnc3c2c(=O)n(C)c(=O)n3C)c2ccccc2)c1 (stereo unspecified)	nt	1.3	-10	nt	nt
Cc1sc2ncnc(SCC(=O)NCC(C)C)c2c1C	10	-0.7	6	-8	-6%
CCOc1cccc2cc(C(=O)NCCC3=CCCCC3)c(=O)oc12	nt	4.8	-4	6	3%
COC(=O)c1ccc(NC(=O)COC(=O)CSc2nc(C)cc(C)n2)cc1	-57	0.3	7	8	-1%

As a working copy, two of the compounds above:
SMILES	YopH PTP inh	RecA intein inh	Mtb betalactam	Arbovirus anti	Mtb growth	others
CCOc1cccc2cc(C(=O)NCCC3=CCCCC3)c(=O)oc12	nt	4.8	-4	6	3%
COC(=O)c1ccc(NC(=O)COC(=O)CSc2nc(C)cc(C)n2)cc1	-57	0.3	7	8	-1%

Retrieved by compound from the entries so far:
SMILES	YopH PTP inh	RecA intein inh	Mtb betalactam	Arbovirus anti	Mtb growth	others
CCOC(=O)CC(C)(C)/C(C)=N/Nc1ccc([N+](=O)[O-])cc1[N+](=O)[O-]	-21	nt	-5	13	7%
Cc1ccc(NC(=S)NC2CC3CCCC(C2)N3Cc2ccco2)cc1 (stereo unspecified)	nt	-0.2	2	21	2%
Cc1cc(OCn2ccc(C(=O)O)n2)ccc1Cl	-21	-1.6	-6	19	-4%
COc1cccc(CNC(=O)CN(c2cc(C)cc(C)c2)S(=O)(=O)c2c(C)noc2C)c1	-32	0.6	-1	3	-6%	Arbovirus anti repeat=3
CCN(CC)CCNC(=S)Nc1ccc(Cl)cc1	-30	-1.0	-2	9	3%

(more compounds)
SMILES	YopH PTP inh	RecA intein inh	Mtb betalactam	Arbovirus anti	Mtb growth	others
CCOc1ccc(S(=O)(=O)N(CC(=O)Nc2cccnc2)c2ccc(F)cc2)cc1	nt	-2.5	-2	nt	nt
Fc1ccc(CNC(=S)NC2CCCC2)cc1	-26	1.2	-1	9	2%
O=C(COc1ccc2ccccc2c1)Nc1ccc(Cc2ccncc2)cc1	-22	0.7	43	0	12%
NNC(=O)CCCNc1ncc(C(F)(F)F)cc1Cl	nt	-1.8	1	-8	5%
CC1CCCC(NC(=O)CSc2ccc(F)cc2)C1C (stereo unspecified)	nt	1.6	3	14	-3%
O=C(Nc1ccccc1F)c1ccc(OCc2ccccc2)cc1	-8	1.7	6	-3	8%
CC1CCCC(NC(=O)CSC2CCCCC2)C1C (stereo unspecified)	nt	-0.5	-10	-10	4%
C[n+]1c(-c2ccccc2)sc2ccccc21	nt	1.0	-4	nt	nt
COc1ccc(C(=O)NC2CCc3ccccc32)cc1OC1CCN(C(C)C)CC1 (stereo unspecified)	nt	-3.7	-7	nt	nt
COc1cc(CN2CCNC(=O)C2CC(=O)NCCC2=CCCCC2)cc(OC)c1 (stereo unspecified)	nt	2.9	-6	-7	-2%
CCOC(=O)N1CCC(NC(=O)c2ccc(CNS(=O)(=O)c3ccc(F)cc3)cc2)CC1	-15	1.1	9	-5	-1%
CN(C)S(=O)(=O)Oc1cc(Cl)ccc1C(=O)Nc1ccc(F)cc1F	nt	-0.2	51	-2	16%
Cc1cc(C)c2cc(CN(Cc3nnnn3Cc3ccc(F)cc3)C3CCCC3)c(=O)[nH]c2c1	-19	-1.9	-5	-1	9%
O=C(Cc1ccccc1)NCC1OCCc2ccccc21 (stereo unspecified)	nt	1.5	3	0	4%
CCCCOC(=O)CNc1n[nH]c(=S)[nH]c1=O	-29	-1.3	2	6	6%
O=C(CCCC(=O)N(CC(=O)NC1CCCCC1)c1cccc(F)c1)Nc1ccccn1	nt	1.2	9	nt	nt
CC(C)OC(=O)CCNc1n[nH]c(=O)[nH]c1=O	-8	-1.5	8	0	-1%
CC(C)CC(=O)Nc1c2c(nn1-c1ccc(F)cc1)CS(=O)(=O)C2	nt	1.1	-6	nt	nt
CCn1c(SCC(N)=O)nc2c(c1=O)C1(CCCC1)Cc1ccccc1-2	-1	3.3	28	-2	-4%
Cc1cc(Oc2ccc(Cl)cc2)nc(SCC(=O)c2ccccc2)n1	-28	1.8	5	12	12%
COc1cc(CNC(=O)c2cccc(COc3ccc(Cl)cc3)c2)cc(OC)c1	-22	17	4	11	79%
CC(=O)Nc1ccc(NC(=O)COc2c(C)cc(Br)cc2C)cc1	nt	nt	2	13	-4%
CC(=Nc1ccc2c(c1)CCC2)c1c(O)n(-c2ccccc2)c(=O)[nH]c1=O	nt	-1.3	-5	nt	57%
CCOC(=O)CC(=O)CSc1nc2c(c(C)c1C#N)CCC2	-25	-9.6	-9	1	nt
O=C(COC(=O)/C=C/c1ccco1)NCc1ccc2c(c1)OCO2	nt	-0.5	4	0	0%

Later entries.
SMILES	YopH PTP inh	RecA intein inh	Mtb betalactam	Arbovirus anti	Mtb growth	others
CCCN(Cc1ccc(N(C)C)cc1)CC1CC1	-9	0.5	8	4	-2%
CCOC(=O)C1CCN(C(=O)C2(NC(=O)Nc3ccccc3Cl)CCCCC2)CC1	1	-1.5	-4	4	-6%
Cc1ccc(C(C)C)c(OCC(=O)NC(=S)Nc2ccccc2N2CCOCC2)c1	nt	2.8	-13	nt	nt
CC(=O)c1ccc(N2CCN(C(=O)C3CCN(S(=O)(=O)c4ccc5c(c4)CC(C)N5C(C)=O)CC3)CC2)cc1 (stereo unspecified)	nt	-0.9	-4	nt	nt
Cc1cc(S(=O)(=O)Nc2c(NC3CCCCC3)c3ccccc3oc2=O)ccc1F	nt	8.1	-9	nt	nt
Cc1ccc(NC(=O)CCC(=O)N/N=C/c2ccco2)c(C)c1	-19	0.0	-5	-4	-2%
Cc1c(C(O)CN2CCC(C(N)=O)CC2)c2ccccc2n1C (stereo unspecified)	-1	-2.3	-11	0	-17%
COc1cc(CN2CCN(C3CCC3)CC2CCO)cc(OC)c1 (stereo unspecified)	nt	0.1	-11	nt	nt
N#Cc1c(NC(=O)CSc2ncc(-c3ccccc3)n2CC2CCCO2)sc2c1CCCC2 (stereo unspecified)	-22	-1.4	-3	14	-8%
O=C(CN1N=C(c2ccc(Cl)cc2)CCC1=O)NCc1cccnc1	-10	-2.1	5	-7	0%
NNC(=S)NCc1ccco1	nt	-3.0	-6	nt	-5%
COc1ccc(NC(=O)Cn2c(-c3ccc(OC)cc3)cn(-c3ccc(C)cc3)c2=O)cc1	3	-2.2	3	5	-5%
COc1cccc(CC2(CO)CCCN(Cc3cn[nH]c3C3CCCCC3)C2)c1 (stereo unspecified)	nt	-4.4	2	5	13%
COc1ccc(NC(=O)COC(=O)Cc2c(F)cccc2Cl)cc1	nt	nt	10	5	5%
Cc1cccc2sc(NC(=O)C3c4ccccc4Oc4ccccc43)nc12	-28	-1.1	78	-16	18%
CCC(C)(C)NC(=O)C(c1cccn1C)N(Cc1ccc(C)cc1)C(=O)Cn1nnc2ccccc21 (stereo unspecified)	-46	-1.4	8	-3	-18%
COc1ccc(C2CC(c3c(Cl)cccc3Cl)n3nc(N)nc3N2)cc1 (stereo unspecified)	-32	2.4	-3	3	-8%	Arbovirus anti repeat=-1
Cn1nc(C(=O)OCC(=O)Nc2ccc3ccccc3c2)c2ccccc2c1=O	nt	1.6	12	22	28%

The list is partial; the hit share may differ from the screen's.
